High-throughput results: PubChem BioAssay, several laboratories
Insulin prom inh: TRM-6 insulin promoter activity inhibition. TRM-6 cells (human fetal islet line), insulin promoter-eGFP reporter, imaging; reporter expression induced with tamoxifen. inhibition, % at 2 µM. actives 0.9% (n = 130,000). AID 1273;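 active = inhibition above the mean plus 3 SD, with well images judged a real hit on visual review, cut at about 60% in these data, passing the limit was not always enough; inconclusive = inhibition over the cutoff but images rejected on review; inactive = inhibition not above the cutoff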
GALR2 agonist: agonists of human galanin receptor 2 (GALR2); O43603; GALR2-expressing cells, agonist activation read-out; activation, %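 (tested at 5 µM)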; actives 0.48% (n = 140,000); AID 803;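 active = above mean plus 3 SD of all compounds, about 5% in these data, not always enough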;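 note: 0% = vehicle buffer wells and 100% = reference agonist at full effect; tested in CHO reporter cells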
RGS16-Gao: regulators of human RGS16-Galphao interaction; bead-based flow cytometry RGS16-Galphao binding, fluorescence; actives lie on both sides; AID 1441; O15492+P09471; actives 0.38% (n = 220,000); binding response (% of control), % at 10 µM;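 active = below 25% or above 175%, edge rows of some plates excepted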;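 note: Galphao activated by GDP with aluminum fluoride before binding; 100% = wells without compound and 0% = beads without RGS; some results beyond the cut were filed as inactive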
HSV augment: increases HSV replication in cells; actives 0.005% (n = 220,000); maximum fold increase; HSV replication augmentation in cells, fold increase; AID 1956;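 active = peak rise of 1.5-fold or more in the series; inconclusive = self-fluorescent or not available for retest; tested in PC3 cells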;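 note: first round at 10 µM; read as green reporter fluorescence; hits show the peak of a series up to 25 µM; 1 = signal of infected wells without compound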
PKD1 kinase inh: PKD1 (human) kinase inhibition; Q15139; PKD1 kinase fluorescence polarization assay; inhibition, %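 (about 10 µM by stock and volumes)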; actives 0.056% (n = 200,000);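 active = inhibition of 50% or more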;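 note: controls were vehicle for no effect and a reference inhibitor for full effect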
Target sequence (Q15139 whole entry, looked up): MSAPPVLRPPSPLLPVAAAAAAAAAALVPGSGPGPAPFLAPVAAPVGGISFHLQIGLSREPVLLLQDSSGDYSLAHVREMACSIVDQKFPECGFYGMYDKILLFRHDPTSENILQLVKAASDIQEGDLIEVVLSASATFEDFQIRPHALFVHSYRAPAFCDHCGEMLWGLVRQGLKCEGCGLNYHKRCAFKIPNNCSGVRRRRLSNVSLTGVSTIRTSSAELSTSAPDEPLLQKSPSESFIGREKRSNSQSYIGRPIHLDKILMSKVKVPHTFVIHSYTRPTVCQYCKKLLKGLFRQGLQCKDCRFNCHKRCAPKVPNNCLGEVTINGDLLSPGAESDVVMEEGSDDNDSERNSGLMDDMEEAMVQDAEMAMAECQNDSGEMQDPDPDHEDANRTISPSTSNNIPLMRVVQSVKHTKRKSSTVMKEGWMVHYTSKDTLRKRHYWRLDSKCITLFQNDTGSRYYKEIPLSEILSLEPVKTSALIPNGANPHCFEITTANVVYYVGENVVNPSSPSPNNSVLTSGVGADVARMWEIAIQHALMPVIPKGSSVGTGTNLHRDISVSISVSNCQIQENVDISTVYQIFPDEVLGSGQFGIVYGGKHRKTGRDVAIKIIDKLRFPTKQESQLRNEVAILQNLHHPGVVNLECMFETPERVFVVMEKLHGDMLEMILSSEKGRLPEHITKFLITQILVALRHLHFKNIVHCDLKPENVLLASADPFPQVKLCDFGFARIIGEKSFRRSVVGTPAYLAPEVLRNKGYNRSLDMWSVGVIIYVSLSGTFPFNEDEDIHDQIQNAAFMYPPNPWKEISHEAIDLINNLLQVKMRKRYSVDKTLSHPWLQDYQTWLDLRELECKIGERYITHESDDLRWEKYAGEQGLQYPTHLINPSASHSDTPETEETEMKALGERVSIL
Insulin prom inh cell count: further read-out of Insulin prom inh, marked with its call; normalized cell count, %; measured here: cell count, toxicity; reference of the scale not given here;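 cells exposed to compound for 48 h; stained nuclei by imaging scaled within each plate; lower means fewer cells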
HSV augment primary fold: further read-out of HSV augment, marked with its call; fold increase; compound at 10 µM; measured here: primary screen fold increase 10 uM; tested in PC3 cells;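 GFP signal in the first replicate; 1 = infected wells without compound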
* = called active by the depositor; i = inactive; ? = inconclusive; . = not tested or not shown.

SMILES | Insulin prom inh | Insulin prom inh cell count | GALR2 agonist | RGS16-Gao | HSV augment | HSV augment primary fold | PKD1 kinase inh
C/C=C(\C)C(=O)Nc1cccc(C2=NOC3(C2)C[C@@H](C(N)=O)N(C(=O)/C(C)=C/C)C3)c1 (some centres undefined) | . | . | . | 107 | i | 0.83 | .
NC(N)=NCC(O)CN(c1ccccc1)c1ccccc1 (centres undefined) | . | . | . | 99 | i | 0.94 | .
CCCC(=O)NC(C)C(c1cccs1)N1CCN(c2ccccc2)CC1 (centres undefined) | 0 | 72 | -2.4 | 91 | i | 0.97 | -10
CCc1ccc(C(=O)N2CCC(c3nc4ccccc4s3)CC2)cc1 | -3 | 124 | 0.5 | 97 | i | 0.99 | 8
Cc1cccc(NCN2C(=O)c3ccccc3C2=O)c1 | 33 | 145 | -1.7 | 86 | i | 0.89 | 3
CCCS(=O)(=O)N1CCCC(C(=O)NCCCN2CCN(c3ccc(F)cc3)CC2)C1 (centres undefined) | . | . | -1.0 | 99 | i | 0.88 | 1
O=C(Cc1csc(N2CCOCC2)n1)N/N=C/c1ccc(F)cc1 | 29 | 116 | -3.1 | 93 | i | 0.9 | 0
CCn1ncc(Br)c1C(=O)Nc1ccc(F)c([N+](=O)[O-])c1 | -238 | 25 | -1.9 | 102 | i | 1 | 7
CCOC(=O)COc1ccc(S(=O)(=O)NCc2ccncc2)cc1 | 54 | 84 | -1.3 | 101 | i | 1.2 | -7
Cc1nc(NC(=O)CN(C)S(=O)(=O)c2ccc(Cl)cc2)sc1C | 80* | 68* | -1.4 | 101 | i | 0.88 | -1
COc1ccccc1C(=O)N1CCN=C1SCc1cccnc1 | 16 | 14 | -2.0 | 105 | i | 1 | 3
CCN(CC)S(=O)(=O)c1ccc(NC(=O)c2cccnc2Cl)c(NC(=O)c2cccnc2Cl)c1 | . | . | . | 102 | i | 0.99 | 10
COc1ccccc1CN1CCNC(=O)C1CC(=O)N(C)Cc1cnccn1 (centres undefined) | . | . | . | 108 | i | 1 | 5
O=C(N/N=C/c1ccccc1O)c1cccc(C(F)(F)F)c1 | 17 | 81 | -0.7 | 105 | i | 0.81 | 7
CCNc1nc(C)c2cc(Br)c(=O)n(CC)c2n1 | . | . | -0.1 | 83 | i | 0.59 | -10
O=C(c1cnc2n(c1=O)CCS2)N1CCN(c2ccccc2F)CC1 | . | . | -4.5 | 104 | i | 0.89 | 3
O=c1[nH]c2ccccc2c2oc(CCl)nc12 | . | . | . | 107 | i | 1 | .
COC(=O)CCCCCCCCCCN1CCCCC1 | -8 | 118 | -1.5 | 104 | i | 0.89 | -10
COc1nc(-c2ccccc2)c2c(c1C#N)CC(C)(C)OC2 | -20 | 121 | 0.7 | 109 | i | 0.92 | -2
CSc1nc(NCC(C)C)c2c3c(sc2n1)CN(C)CC3 | -29 | 127 | -0.2 | 104 | i | 0.71 | 6
Cc1ccc(N(CC(=O)NCCc2ccccc2)S(=O)(=O)c2c(C)noc2C)cc1 | -119 | 58 | -1.4 | 103 | i | 0.78 | 0
O=C1c2ccccc2C2=Nc3ccccc3SC(c3cccc(F)c3)C12 (centres undefined) | -31 | 195 | -1.9 | 107 | i | 0.77 | -3
O=c1c2ccccc2nnn1CSc1nnnn1-c1ccccc1 | -11 | 129 | -0.9 | 98 | i | 1.1 | -9
Cc1sc2nc(SCC(=O)Nc3c(C)n(C)n(-c4ccccc4)c3=O)n(C)c(=O)c2c1C | -11 | 152 | -2.0 | 92 | i | 0.98 | -4
O=C(O)CCC(=O)Nc1ccc(Br)cc1C(=O)c1ccccc1Cl | . | . | . | 85 | i | 1 | .
C=CCN1CCc2c(cc(O)c(O)c2Cl)C(c2ccccc2)C1 (centres undefined) | . | . | . | 89 | i | 0.96 | .
Cc1ccc(Cl)cc1NC(=S)N(CCCN1CCN(C)CC1)Cc1ccco1 | . | . | . | 99 | i | 0.96 | -3
CCOC(=O)C1CCN(C(=O)Cn2cc(C#N)c3ccccc32)CC1 | 41 | 157 | -0.3 | 100 | i | 0.96 | -3
N#Cc1nc(COc2ccc(Br)cc2)oc1N1CCCC1 | 9 | 54 | -2.1 | 102 | i | 0.98 | -11
O=c1c2ccccc2nc(SCc2nnc(-c3ccccc3Br)o2)n1-c1ccccc1 | 48 | 77 | -2.0 | 101 | i | 1 | -6
CCOc1ccc(CCNC(=O)CSc2nnnn2C)cc1OCC | -100 | 84 | . | 84 | i | 0.9 | -2
CCCCNC(=O)c1ccc(CS(=O)(=O)Cc2ccccc2F)o1 | 8 | 157 | . | 100 | i | 0.93 | 9
CCOc1c(Cl)cc(CNC(C)(C)CC(C)(C)C)cc1OC | -27 | 100 | -0.8 | 103 | i | 0.68 | -6
CCSc1nnc(NC(=O)[C@@H](NC(=O)c2ccccc2F)C(C)C)s1 | 8 | 53 | . | 78 | i | 1.1 | 1
CCOc1ccc(-c2cc(CCCC(=O)NCCc3ccccc3)no2)cc1 | 75* | 104* | -1.7 | 63 | i | 0.86 | 1
CCN(CC#CCC1(O)c2ccccc2-c2ccccc21)CCO | 7 | 86 | -2.9 | 94 | i | 0.97 | -4
CCCC(CCC)C(=O)Nc1ccc2c(c1)N(C(=O)CCN1CCN(C)CC1)c1ccccc1CC2 | . | . | . | 126 | i | 0.84 | 1
O=C(CN(C1CCCCC1)S(=O)(=O)c1ccccc1)NCc1cccnc1 | -45 | 62 | 2.4 | 103 | i | 0.91 | 3
O=C(Cc1ccccc1)N[C@@H](Cc1ccccc1)c1nc2ccccc2[nH]1 | 9 | 70 | -1.8 | 90 | i | 0.95 | -14
CCOC(=O)C1CCCN(Cc2ccccc2C)C1 (centres undefined) | 15 | 130 | -1.2 | 101 | i | 1 | -4

A second format for 2 compounds above.
O=C(Cc1ccccc1)N[C@@H](Cc1ccccc1)c1nc2ccccc2[nH]1
  Insulin prom inh = 9; Insulin prom inh cell count = 70; GALR2 agonist = -1.8; RGS16-Gao = 90; HSV augment = i; HSV augment primary fold = 0.95; PKD1 kinase inh = -14

CCOC(=O)C1CCCN(Cc2ccccc2C)C1 (centres undefined)
  Insulin prom inh = 15; Insulin prom inh cell count = 130; GALR2 agonist = -1.2; RGS16-Gao = 101; HSV augment = i; HSV augment primary fold = 1; PKD1 kinase inh = -4

Additional results:
SMILES | Insulin prom inh | Insulin prom inh cell count | GALR2 agonist | RGS16-Gao | HSV augment | HSV augment primary fold | PKD1 kinase inh
O=S(=O)(c1ccc(-c2ccccc2)cc1)N1CCOCC1 | 33 | 102 | -1.0 | 100 | i | 0.91 | -11
CC(C)CC(=O)N1CCN(Cc2ccc3c(c2)OCO3)CC1 | . | . | -0.6 | 101 | i | 0.82 | -3
N#Cc1cc(-c2ccccc2)nc(Oc2ccccc2)n1 | . | . | 0.1 | 107 | i | 1 | 3
CCOC(=O)N1CCC(=NNC(=O)c2cc3ccccc3cc2O)CC1 | -8 | 102 | -1.7 | 108 | . | . | 10
CC1(C)C2CC=C(/C=N/n3cnnc3)C1C2 (centres undefined) | 62 | 69 | -3.2 | 113 | i | 0.94 | 16
Cc1ccc(S(=O)(=O)N2CCN(C(=O)CSc3nc4ccccc4c(=O)[nH]3)CC2)cc1 | . | . | -1.9 | 94 | i | 0.84 | 0
O=C(c1ccccc1)c1cccc(NC(=O)C2CC2)c1 | 48 | 129 | -1.2 | 101 | i | 1.2 | -1
CCOC(=O)c1sc(-c2ccc(OC)cc2)cc1N | 20 | 77 | -3.6 | 106 | i | 0.87 | -3
CC(=O)N1CCc2cc(S(=O)(=O)NCCC(=O)NC3CCN(Cc4ccccc4)CC3)ccc21 | . | . | -1.0 | 99 | i | 0.89 | 0
COc1ccc(CNC(=O)c2ccc(CN3CCOCC3)cc2)cc1 | -31 | 64 | -0.1 | 104 | i | 0.99 | -10
CCCCc1c(C)[nH]c(=S)[nH]c1=O | . | . | . | 102 | i | 0.95 | .
CN(C)CCN1C(=O)C(=O)/C(=C(/O)c2ccccc2)C1c1ccccc1F (centres undefined) | . | . | -1.2 | 102 | i | 1 | -12
Cc1ccc(-c2cc(=O)c3ccc(Cl)cc3[nH]2)cc1 | . | . | . | 92 | i | 1 | -1
CCNc1[nH]c(=O)n(C)c(=O)c1N=O | 7 | 69 | -1.3 | 104 | i | 1.1 | -6
Cc1ccc([N+](=O)[O-])cc1S(=O)(=O)NCCc1cn2ccccc2n1 | . | . | . | 95 | i | 1.1 | .
Cc1ccc(Cl)cc1NC(=O)c1ccccc1OCC(=O)Nc1ccc(Cl)cc1 | . | . | -1.2 | 103 | i | 0.99 | -16
CC(=O)Nc1ccc(Nc2ccc3c4c(cc(=O)n3C)-c3ccccc3C(=O)c24)cc1 | 13 | 138 | . | 101 | i | 0.8 | -7
CCN(CC)C(=O)Cn1c(=O)n(C)c2ccccc21 | 4 | 135 | 1.4 | 94 | i | 1 | -4
CCOC(=O)c1sc2cc([N+](=O)[O-])cc(SCC(C)C)c2c1N | -43 | 89 | -1.1 | 124 | ? | . | 7
COc1c(S(=O)(=O)NCCN2CCOCC2)ccc(Cl)c1Cl | 22 | 49 | -0.1 | 114 | i | 0.91 | 0
NS(=O)(=O)c1cccc(NS(=O)(=O)c2cccc(C(F)(F)F)c2)c1 | . | . | . | 105 | i | 0.48 | .
CC1(C)CC(NCc2ccccc2)CCO1 (centres undefined) | 0 | 149 | . | 113 | i | 0.94 | -7
OCC1(O)OC[C@@H](O)[C@H]1O (some centres undefined) | . | . | . | 103 | i | 0.82 | .
CN(C)CCCN(C(=O)c1ccc(S(=O)(=O)N(C)C)cc1)c1nc2ccc(F)cc2s1 | . | . | . | 98 | i | 1 | 1
CCn1c(SCC(=O)Nc2nnc(C)s2)nnc1-c1ccco1 | -65 | 74 | -1.8 | 104 | i | 0.88 | 2
Nc1nc2ccc(Oc3ccccc3)cc2s1 | . | . | -0.9 | 105 | i | 0.9 | 1
CCCCc1ccc(NC(=S)NCCc2ccc(F)cc2)cc1 | 5 | 117 | . | 72 | i | 1 | 4
Cc1cc(C)n(CCc2nc(-c3ccc(C(C)(C)C)cc3)cs2)n1 | . | . | -1.0 | 104 | i | 1.1 | 2
Cc1oc2c(c1C(=O)NCc1cc(C(=O)O)co1)CCCC2 | -22 | 62 | 0.1 | 97 | i | 0.95 | -7
Cc1cccc(OC(=O)CCN2C(=O)C3C4C=CC(C5CC45)C3C2=O)c1C (centres undefined) | . | . | . | 105 | i | 1.1 | 0
c1ccc(-c2nc(C3CCCCC3)no2)cc1 | -3 | 84 | -3.1 | 103 | i | 0.98 | -1
NNC(=O)c1ccc(COc2ccccc2)cc1 | . | . | 0.7 | 47 | i | 1.1 | 4
CCCCN(CCCC)CC(O)COc1ccc(Br)cc1 (centres undefined) | . | . | . | 97 | i | 0.82 | .
CCCCCC(=O)Nc1cc2[nH]c(=O)cc(COC)c2cc1C | -25 | 45 | -1.2 | 103 | i | 0.7 | -2
C=CCOC(=O)C1C(=O)CC(C)(O)C(C(=O)OCC=C)C1c1ccc(OCC)cc1 (centres undefined) | -114 | 38 | -3.5 | 107 | i | 0.95 | -3
Cc1ccc(C(=O)NC(=S)Nc2nc(-c3cccc([N+](=O)[O-])c3)cs2)c(Cl)c1 | 86* | 57* | . | 99 | i | 0.94 | -3
Clc1cccc(Cl)c1Cn1c(-c2cccnc2Cl)nc2ccccc21 | . | . | -1.7 | 102 | i | 1.1 | 12
O=CNCCCc1nc2ccccc2n1Cc1cccc2ccccc12 | -4 | 33 | -1.3 | 100 | i | 1.1 | 0
CCOc1cc(C(=O)NC2=NCCS2)cc(OCC)c1OCC | 47 | 92 | . | 100 | i | 0.94 | 2
COCCCNC(=O)C1CC(=O)N(Cc2ccc(OC)cc2)C1 (centres undefined) | -3 | 132 | -1.4 | 101 | i | 0.77 | -9

Molecules shown so far with a COOH group (two):
SMILES | Insulin prom inh | Insulin prom inh cell count | GALR2 agonist | RGS16-Gao | HSV augment | HSV augment primary fold | PKD1 kinase inh
O=C(O)CCC(=O)Nc1ccc(Br)cc1C(=O)c1ccccc1Cl | . | . | . | 85 | i | 1 | .
Cc1oc2c(c1C(=O)NCc1cc(C(=O)O)co1)CCCC2 | -22 | 62 | 0.1 | 97 | i | 0.95 | -7

(next part)
SMILES | Insulin prom inh | Insulin prom inh cell count | GALR2 agonist | RGS16-Gao | HSV augment | HSV augment primary fold | PKD1 kinase inh
Cc1ccc(C(=O)CSc2nnc(-c3ccncc3)n2C)cc1 | . | . | . | 104 | i | 0.92 | -4
CCCCOCP(=O)(CC)COCCCC | 27 | 108 | -2.0 | 105 | i | 1 | -2
Cc1cnc(C(=O)OCC(=O)NC2CCCCC2)cn1 | 9 | 141 | -1.0 | 98 | i | 0.93 | -20
CCOC(=O)C1CCN(c2c(NCc3ccc(C(=O)N(C)Cc4ccccc4)cc3)c(=O)c2=O)CC1 | -42 | 160 | . | 103 | i | 0.88 | 4
